MgrA DNA FP: S. aureus MgrA activity modulators, primary screen, biochemical, S. aureus Newman, fluorescence polarization; hit rate 0.13% among 84,000; MgrA-DNA binding; AID 602314, 2012; inhibition, %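 (about 10 µg/mL by stock and volumes)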;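 active means above 50% in either of two replicates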;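 further: 0% = protein plus DNA without compound and 100% = DNA alone without protein; higher means less MgrA bound to DNA so lower polarization; one replicate is shown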
S aureus helic: inhibitors of S. aureus replicative helicase, primary screen, biochemical, fluorescence unwinding readout | replicative DNA helicase (DnaC/DnaB), Staphylococcus aureus | purified S. aureus helicase, fluorescence unwinding assay; about half of the hits fall short of the stated cut | inhibition, %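 (tested at about 80 µM)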 | hit rate 0.05% among 120,000 | AID 485395, 2010;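 active means both duplicates at 50% or more, or one of them with a favoured structure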;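 further: 0% = mean of negative control wells and 100% = mean of positive control wells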
The depositor's hits bear a star; / = not tested or not shown. The list is partial. The share of hits here may be higher or lower than overall.

SMILES | MgrA DNA FP | S aureus helic
CCCc1nc(-c2ccccn2)[nH]c(=O)c1Cc1c(F)cccc1Cl | / | 35
CC(C)N(C(=O)CSc1ccc(Br)cc1)c1ccccc1 | -1.0 | -18
CN(C)/C=N/c1nnc(SCC(=O)c2ccc(Cl)cc2)s1 | / | -18
CSc1ncccc1C(=O)OCC(=O)Nc1ccc(NC(C)=O)cc1 | / | 0
Cn1c2ccccc2c2nnc(NN)nc21 | 2.8 | 18
Cc1ccccc1Nc1nc(N)nc(CSc2nc(C)c(C)n2CC(C)C)n1 | / | 9
O=C1CNC(=S)N1CCc1ccccn1 | -2.2 | /
Cc1onc(NC(=O)CSCC(=O)O)c1Br | -4.2 | /
CCOc1ccccc1CN1C(=O)c2ccccc2C1C(=O)NCCc1ccccc1 (stereo unspecified) | / | 12
Cc1ccc(Cl)cc1NC(=O)c1ccc(NS(=O)(=O)c2cccc3cccnc23)cc1 | / | 6
COc1ccc(S(=O)(=O)N2CCC(c3ccccc3OC)CC2)cc1 | -1.0 | /
COC(=O)C1CCCC(C(=O)OC)C1=O (stereo unspecified) | 3.0 | /
Clc1ccc(C2Oc3ccccc3C3CC(c4ccc(Br)cc4)=NN32)cc1 (stereo unspecified) | -0.1 | /
CCOC(=O)N/N=C/c1cc(OC)c(OC)c(OC)c1 | 0.0 | /
CN(C)S(=O)(=O)c1ccc(S(=O)(=O)N2CCC(c3nc4ccccc4s3)CC2)cc1 | 18 | -3
CCc1cccc(NS(=O)(=O)c2c(C)n[nH]c2C)c1 | / | 21
c1ccc2c(c1)OCC(CSc1nnc3c(n1)[nH]c1ccccc13)O2 (stereo unspecified) | / | 14
c1ccc(CN2CCCC(c3ccccc3)C2)cc1 (stereo unspecified) | / | 2
COc1ccc(C(=O)/C(C#N)=C/NC2CCN(Cc3ccccc3)CC2)cc1 | 0.2 | /
C=CCNC(=O)C1CCN(S(=O)(=O)c2ccccc2C(F)(F)F)CC1 | / | -10
CC1(C)CC2CC(C)(CN2C(=O)COC(=O)C2=NNC(=O)CC2)C1 (stereo unspecified) | / | -14
CC(=O)Nc1c(C)cc(C(O)(C(F)(F)F)C(F)(F)F)cc1C | 0.7 | -3
COC(=O)C1=NNC2(c3ccc(C)cc3)C(=O)N(c3ccc(C)cc3)C(=O)C12 (stereo unspecified) | 2.2 | -7
O=C1CCCN2N=C(SCC(=O)N3CCCC3)SC2=N1 | 1.6 | 2
COc1ccccc1NC(=O)Cc1noc(COC(=O)c2ccc(C(F)(F)F)cc2)n1 | / | 11
Cc1ccc2nc(N3CCc4ccccc43)c3nncn3c2c1 | / | -23
COc1ccc(C(=O)N=S2CCN(C(=O)c3ccc(Cl)cc3)CC2)cc1 | / | -4
O=C(/C=C/c1ccccc1)OCC(=O)N1CCCC1 | / | 19
N#Cc1c(N)n(CCC2=CCCCC2)c2nc3ccccc3nc12 | / | -1
CS(=O)(=O)c1ccc2nc(NC(=O)c3ccc4c(c3)CCCC4)sc2c1 | / | -15
Cc1cc(N2C(=O)CSC2c2cccc([N+](=O)[O-])c2)ccc1Br (stereo unspecified) | 1.2 | /
CCCN1C(=O)C(C#N)=C(C)/C(=C\c2ccc(-c3ccc(Cl)cc3)o2)C1=O | 13 | 3
CCc1ccc(NC(=O)C(C)OC(=O)c2cnc(Cl)c(Cl)c2)cc1 (stereo unspecified) | -3.0 | -3
CC(C)CNC(=O)c1cc2ccccc2oc1=O | / | -14
O=C(Cn1c(=O)c2ccccc2n2nncc12)Nc1ccccc1C(F)(F)F | / | -2
COc1ccccc1C(=O)N=S1CCN(S(=O)(=O)c2ccc(Cl)cc2)CC1 | -1.2 | /
O=C(CC1NC2CCCCC2NC1=O)NCc1ccccc1 (stereo unspecified) | -1.2 | 1
Cc1cnc(NC(=O)c2cn(-c3ccccc3)nc2-c2cccnc2)s1 | / | 10
Clc1ccc(CSc2ncccn2)cc1 | -0.8 | 4
C=CCNC(=O)N1c2ccccc2Sc2ccccc21 | / | -20
CN(c1ccccc1N(C)S(=O)(=O)c1ccccc1)S(=O)(=O)c1ccccc1 | -0.8 | 11
C#CCn1c(=NC(=O)COc2ccccc2)sc2cc(S(N)(=O)=O)ccc21 | / | -2
COc1ccc(-n2ccnc2SCC(=O)Nc2nccs2)cc1 | / | 7
COC(=O)Cn1c(C(=O)OC)cc2c1ccn2C | 0.8 | -8
CS(=O)(=O)c1ccc2nnn(OCC(=O)Nc3cccc(C#N)c3)c2c1 | / | -6

Whole records, quoted from the list. Order of screens: MgrA DNA FP | S aureus helic
Shown for Clc1ccc(CSc2ncccn2)cc1 = -0.8 | 4
Shown for Cc1cc(N2C(=O)CSC2c2cccc([N+](=O)[O-])c2)ccc1Br (stereo unspecified) = 1.2 | /
Shown for CCc1ccc(NC(=O)C(C)OC(=O)c2cnc(Cl)c(Cl)c2)cc1 (stereo unspecified) = -3.0 | -3
Shown for CS(=O)(=O)c1ccc2nnn(OCC(=O)Nc3cccc(C#N)c3)c2c1 = / | -6

(list continues)
SMILES | MgrA DNA FP | S aureus helic
COc1ccc(CNC(=O)CC23CC4CC(CC(C4)C2)C3)cc1 | -2.4 | /
CC1CCCC/C1=N/NC(=O)Cn1ccc(C(F)(F)F)n1 (stereo unspecified) | / | 20
Cn1nnc(NC(=S)NC(=O)Cc2ccccc2)n1 | 3.5 | -14
O=S(=O)(NCC1CCN(Cc2ccc(Cl)cc2)CC1)c1cnc[nH]1 | / | 5
COc1cc(C#N)ccc1OCC(=O)Nc1ccc(C)cc1C | 2.3 | 2
O=S(=O)(c1cccs1)N(Cc1ccccc1)Cc1ccccc1 | / | 18
O=C(NCc1ccccc1)c1ccc(-n2c(-c3ccccc3)cc3c2CCCC3)cc1 | 0.4 | 15
O=C(O)c1ccc(CNCc2ccccc2)cc1 | / | 17
NS(=O)(=O)c1cc(Cl)ccc1Cl | -1.2 | -18
O=C1Nc2ccc([N+](=O)[O-])cc2C1(O)N1CCOCC1 (stereo unspecified) | 0.0 | /
CCN(CC)c1ccc(-c2nnc(SC(C)C)n2C)cc1 | / | -4
CC(C)Sc1ncnc2c1oc1ccccc12 | / | 1
CC1=CC(C)C2COC(c3ccc(OC(=O)NC4CCCCC4)cc3)C1C2C (stereo unspecified) | 1.8 | -4
O=C1CCCN=C(N(C(=O)c2ccco2)c2ccc(F)cc2F)S1 | 0.9 | /
CC1(C)CC(N=C=S)CCO1 (stereo unspecified) | -13 | 11
O=S(=O)(c1ccccc1)N1CCC2(CC1)OCCN2S(=O)(=O)c1ccccc1 | / | 5
O=C(CCc1nc2cc(C(F)(F)F)ccc2n(Cc2ccccc2)c1=O)NCc1ccco1 | / | 2
CN1C(C(=O)c2ccccc2)=C(OC(=O)Cc2ccccc2)c2ccccc2S1(=O)=O | / | -2
CS(=O)(=O)c1cccc(S(=O)(=O)NC2CCCCC2)c1 | 1.9 | 9
CCCCCC1OC1C/C=C\C/C=C\C/C=C\CCCC(=O)O (stereo unspecified) | 4.8 | /
O=C(Cn1c(=O)n(Cc2ccc3c(c2)OCO3)c(=O)c2ccc(C(=O)NC3CCCCC3)cc21)NCc1ccco1 | / | -37
N#CCSc1cccc[n+]1[O-] | 1.5 | /
Cn1cc(-c2csc(N)n2)cn1 | 3.5 | -9
COc1ccc(/C=C2/SC(=O)N(CNc3cc(F)ccc3C)C2=O)cc1OC | -1.8 | /
COc1ccc(Cc2nn3c(Cn4cnc5ccccc54)nnc3s2)cc1 | 16 | -6
CC(C)NC(=O)C(C)SCc1ccccc1 (stereo unspecified) | 1.8 | 5
Cn1cnnc1S/C=C/C(=O)c1ccc(Cl)cc1 | -2.9 | /
COc1cc(-c2nc3ccccc3c(=O)n2NC(=O)c2ccc(F)cc2Cl)cc(OC)c1OC | -2.6 | /
Cc1cc(C(=O)COc2ccc(-c3ccc(C#N)cc3)cc2)c(C)n1C | / | 7
O=C(Nc1nc(=S)ss1)c1ccc(Cl)cc1 | / | 4
CN(Cc1ccccc1)C(=O)COC(=O)c1ccc(-n2cnnn2)cc1 | / | 0
CNC(=O)c1ncoc1-c1ccc(Cl)cc1 | / | 27
Cc1cc(OCCN)c(C(C)C)cc1Cl | 0.1 | -5
CNc1nc2[nH]c(=O)c3c(c2s1)OC(N)=C(C#N)C3c1cccc(F)c1 (stereo unspecified) | / | 2
O=C(O)c1sc2cc(F)ccc2c1Cl | -6.1 | -4
Clc1ccc(Cn2nnc(N3CCCCC3)n2)cc1 | -4.4 | /
c1ccc(-n2nnnc2-c2cnoc2-c2cccs2)cc1 | / | 23
CC1=C(C(=O)OCCOC(C)C)C(c2cccc(OCc3ccccc3)c2)NC(=O)N1 (stereo unspecified) | 0.0 | /
N#Cc1nc(CNc2ccccc2)oc1Nc1ccccc1 | / | 19
Cc1cc(NC(=O)C(C)Sc2nc(-c3ccccc3)cc(=O)[nH]2)no1 (stereo unspecified) | -2.3 | 8
O=C(NCCn1ccc2ccccc21)C1CCCCC1 | / | -25
Cc1nc(N)[nH]c(=O)c1Oc1ccc(Cl)cc1Cl | 0.2 | /
O=C(NN1CCOCC1)c1ccco1 | / | 2
Cc1ccc(-n2nc3c(c2NC(=O)CCC2CCCCC2)CSC3)cc1 | 2.3 | 8
Cc1ccccc1-n1c(SCc2c(C)noc2C)nnc1-c1ccncc1 | / | -17
C=CCC(c1ccccc1)N(C(C)=O)c1ccco1 (stereo unspecified) | 1.0 | -6
FC(F)(F)c1cccc(NC(=S)N2CCOCC2)c1 | -1.6 | /
O=C(Cn1cnc2ccccc2c1=O)NCc1ccccc1 | -0.4 | 17
CC12CS(=O)(=O)CC1SC(=S)N2c1ccccn1 (stereo unspecified) | / | -6
O=C(Nc1ccccc1)c1cc([N+](=O)[O-])ccc1Cl | 1.6 | /
COc1nc(Nc2ccc(Cl)cc2)nc(NC2CCCCC2)n1 | / | 12
COc1ccccc1Oc1ccc(C(F)(F)F)cc1NC(=O)NC(=O)c1c(F)cccc1Cl | 0.1 | /
COc1ccc(Br)cc1/C=C1\N=C(c2ccc(Cl)c([N+](=O)[O-])c2)OC1=O | -2.2 | /
CC12COC3(C#N)CC1CCC32C (stereo unspecified) | / | 19
CC1(C)Cc2ccccc2C(=NCCC(=O)O)N1 | -0.1 | -2
CCCCSc1nc2c(c(C(F)(F)F)c1C#N)CCC2 | 0.6 | 9
CN1CCN(c2nc(-c3ccccc3)cc(-c3ccc(Br)cc3)n2)CC1 | 2.3 | 8
COc1cc(C(F)(F)F)c(C(=O)N(C)c2ccc(Cl)cc2)cn1 | -2.5 | /
O=c1cccccc1NC1CCCCC1 | 3.2 | -4
Cc1c(C)n(CC(O)CN2C(=O)c3ccccc3S2(=O)=O)c2ccccc12 (stereo unspecified) | -0.6 | /

Random excerpt: 5 compounds from above, in no set order.
SMILES | MgrA DNA FP | S aureus helic
COc1cc(C(F)(F)F)c(C(=O)N(C)c2ccc(Cl)cc2)cn1 | -2.5 | /
CC12COC3(C#N)CC1CCC32C (stereo unspecified) | / | 19
COc1ccc(Br)cc1/C=C1\N=C(c2ccc(Cl)c([N+](=O)[O-])c2)OC1=O | -2.2 | /
CC12CS(=O)(=O)CC1SC(=S)N2c1ccccn1 (stereo unspecified) | / | -6
CC1(C)Cc2ccccc2C(=NCCC(=O)O)N1 | -0.1 | -2

Additional compounds:
SMILES | MgrA DNA FP | S aureus helic
COc1ccc(NC2CCCCC2NS(=O)(=O)c2ccccc2)cc1 (stereo unspecified) | / | 14
Cc1c(O)ccc(C(=O)Cc2ccc(F)cc2)c1O | 1.7 | 7
COc1ccc(/C=C/C(=O)Nc2c(C(N)=O)oc3ccccc23)cc1OC | / | -1
CC(=O)Nc1ccc(Oc2nc(-c3ccccc3)ns2)cc1 | -1.7 | /
COC(=O)c1ccsc1NC(=O)CC1SC(N)=NC1=O (stereo unspecified) | / | 3
COc1ccc(CN(C)C(=O)CN2CCCCC2C)c(OC)c1OC (stereo unspecified) | / | -13
CC(CCc1ccccc1)NC(=O)c1ccccc1C(=O)O (stereo unspecified) | 0.1 | 5
Cn1nc(C(=O)N(Cc2ccco2)C2CCCCC2)c2c1-c1ccccc1OC2 | / | -16
O=C(CSc1nnc2c(n1)Nc1ccccc1S2)N1CCN(Cc2ccccc2)CC1 | / | 10
CC(Oc1ccc(Br)cc1)C(=O)N=c1sccn1C (stereo unspecified) | / | 3
CNC(=O)CN(Cc1ccccc1)S(=O)(=O)c1ccccc1 | -0.2 | 15
C=CCn1c(SCC(=O)Nc2ccc3c(c2)OCO3)nc2scc(-c3ccc(F)cc3)c2c1=O | -1.9 | /
O=C1NC(c2ccccc2)(C(F)(F)F)N=C2SC3=C(CCCC3)N12 (stereo unspecified) | / | -12
CCOC(=O)c1cnn(C(=O)COc2ccc(C)c3c2CCC3)c1N | -1.5 | /
CNC(=O)Cn1ncc2c3ccccc3n(Cc3ccccc3)c2c1=O | / | 10
C=Cn1cc[n+](CC(=O)c2ccc(Cl)cc2)c1 | -4.2 | 6

Compounds above that have bromine (7):
SMILES | MgrA DNA FP | S aureus helic
CC(C)N(C(=O)CSc1ccc(Br)cc1)c1ccccc1 | -1.0 | -18
Cc1onc(NC(=O)CSCC(=O)O)c1Br | -4.2 | /
Clc1ccc(C2Oc3ccccc3C3CC(c4ccc(Br)cc4)=NN32)cc1 (stereo unspecified) | -0.1 | /
Cc1cc(N2C(=O)CSC2c2cccc([N+](=O)[O-])c2)ccc1Br (stereo unspecified) | 1.2 | /
COc1ccc(Br)cc1/C=C1\N=C(c2ccc(Cl)c([N+](=O)[O-])c2)OC1=O | -2.2 | /
CN1CCN(c2nc(-c3ccccc3)cc(-c3ccc(Br)cc3)n2)CC1 | 2.3 | 8
CC(Oc1ccc(Br)cc1)C(=O)N=c1sccn1C (stereo unspecified) | / | 3
